# Source: PubChem (several laboratories)
# LANA-H2B inh: blocks KSHV LANA binding to histone H2A/H2B | inhibition, % (test concentration not listed) | actives 0.6% (n = 320,000) | Q9QR71 | cell-free LANA-H2A/H2B peptide, fluorescence polarization; in the data active means inhibition mostly above about 10%, no sharp cut-off; inactive means mostly below about 6.7%;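 further: stock transfer was 7.5 nL into about 10 µL; 0% = median of vehicle wells and 100% = median of positive control wells; one replicate is shown; the record names a cut of 25% in any replicate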
# B2AR ag: human beta-2 adrenergic receptor agonism by FAP. P07550. Am2.2-beta2AR cells, FAP receptor internalization, flow cytometry; reference of the scale not given here. response, % (test concentration not listed). actives 0.43% (n = 340,000);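 active means response above a set limit, near 3 SD of response in nonfluorescent compounds, cut at about 42% in these data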;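 further: stock transfer was 100 nL into about 11 µL; a reference agonist was the positive control; negative values mostly stem from fluorescent compounds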
# Target sequence (P07550 whole entry, looked up): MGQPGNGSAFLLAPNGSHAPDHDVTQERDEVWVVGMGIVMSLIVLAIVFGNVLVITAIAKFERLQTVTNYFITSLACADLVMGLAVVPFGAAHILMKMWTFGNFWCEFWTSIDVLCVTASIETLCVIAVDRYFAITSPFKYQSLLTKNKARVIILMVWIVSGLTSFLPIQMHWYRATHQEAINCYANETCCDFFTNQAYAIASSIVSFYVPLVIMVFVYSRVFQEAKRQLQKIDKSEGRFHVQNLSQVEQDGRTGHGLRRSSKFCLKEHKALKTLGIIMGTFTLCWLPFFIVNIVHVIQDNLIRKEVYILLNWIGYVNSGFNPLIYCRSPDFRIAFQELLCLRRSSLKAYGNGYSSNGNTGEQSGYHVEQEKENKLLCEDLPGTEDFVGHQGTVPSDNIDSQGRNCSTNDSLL
# Vif TR-FRET: inhibitors of Vif binding to APOBEC3G peptide, primary screen, biochemical, TR-FRET, GST-Vif 1-94, biotin-A3G peptide, dose response retest (AID 1117319). actives 0.57% (n = 260,000). TR-FRET GST-Vif / biotin-A3G peptide binding; higher % means a stronger effect; test concentration not given here; strong numbers were not always called active. inhibition, %; hits with a dose series show IC50 in µM;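 active means above the screen mean plus three standard deviations and confirmed in dose response; inconclusive means results disagree or hit not tested in dose response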;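 further: Vif residues 1-94 fused to GST binding biotinylated APOBEC3G peptide 110-148; 0% = full assay without inhibitor and 100% = GST in place of GST-Vif; retest series ran down from 100 µM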
# Calb FLC: C. albicans growth modulation with fluconazole | C. albicans CaCi-2 (fluconazole-resistant clinical isolate) + fluconazole, Alamar Blue growth, 48 h | growth inhibition, % (no concentration beside the values) | actives 0.57% (n = 300,000) | AID 1979;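 active means most replicates above 75%; inconclusive means exactly half above 75%; inactive means most below 75%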;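 further: all wells also contain fluconazole at 8 µg/ml as a sub-toxic cotreatment; 0% = median of DMSO wells and 100% = median of geldanamycin control wells; wells of about 8 µL received 7.5 nL stock; the first replicate is given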
# RanGTP-Imp inh: inhibitors of RanGTP-importin-beta interaction, primary screen, biochemical, FRET, CFP-Ran, YFP-importin-beta, homogeneous; cell-free CFP-Ran/YFP-importin-beta FRET ratio; inhibition, % (no concentration beside the values); actives 1.1% (n = 300,000); AID 2216;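 active means most replicates above 15%; inconclusive means exactly half above 15%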;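 further: 0% = DMSO wells and 100% = Ran loaded with GDP instead of GTP; wells of about 40 µL received 100 nL stock; the first replicate is given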
# ALR H2O2 inh: blocks human ALR sulfhydryl oxidase activity; P55789; purified ALR, DTT oxidation, H2O2 HRP-luminol luminescence; inhibition, % (concentration not given with the values); actives 3.8% (n = 290,000);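 active means mean and each replicate at 75% or more; inconclusive means only one of the two met; inactive means neither met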;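 further: stock transfer was 7.5 nL into about 7.5 µL; 0% = neutral wells and 100% = wells with inactivated enzyme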
# Target sequence (P55789 whole entry, looked up): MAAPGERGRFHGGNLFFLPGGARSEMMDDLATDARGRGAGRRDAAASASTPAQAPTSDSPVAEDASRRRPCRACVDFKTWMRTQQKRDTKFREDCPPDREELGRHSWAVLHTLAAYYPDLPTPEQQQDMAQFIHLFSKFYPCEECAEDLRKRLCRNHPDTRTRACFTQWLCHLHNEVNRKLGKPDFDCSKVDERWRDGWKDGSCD
# HNF4A DNA FP: change in binding of human HNF4 alpha to DNA. P41235. HNF4a-FITC DNA binding, fluorescence polarization, 1 h. activity change, % at 10 µM. actives 0.3% (n = 360,000); in the data active means activity change above about 30%, passing the limit was not always enough;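 further: controls were the assay level and a saturating level of protein; the project sought stronger binding though the title names inhibitors; some compounds called inactive have numbers as strong as hits; positive values seem to mean higher polarization but the record does not say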
# Target sequence (P41235 whole entry, looked up): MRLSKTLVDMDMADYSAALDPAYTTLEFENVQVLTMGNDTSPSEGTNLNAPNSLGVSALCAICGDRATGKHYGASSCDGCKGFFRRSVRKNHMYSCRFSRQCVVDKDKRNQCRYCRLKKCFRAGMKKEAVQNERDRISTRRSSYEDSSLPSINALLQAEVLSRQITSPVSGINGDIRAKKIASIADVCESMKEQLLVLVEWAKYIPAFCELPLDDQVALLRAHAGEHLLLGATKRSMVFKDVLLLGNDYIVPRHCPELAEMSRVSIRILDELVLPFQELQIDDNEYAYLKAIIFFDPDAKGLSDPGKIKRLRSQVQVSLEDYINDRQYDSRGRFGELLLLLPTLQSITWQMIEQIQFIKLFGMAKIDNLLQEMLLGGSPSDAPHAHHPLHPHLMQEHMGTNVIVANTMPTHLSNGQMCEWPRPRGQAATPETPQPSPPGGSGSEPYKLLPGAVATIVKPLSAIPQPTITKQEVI
# Numbers without * were called inactive; u = inconclusive; x = not tested or not shown; & = joins results of further samples.
SMILES,LANA-H2B inh,B2AR ag,Vif TR-FRET,Calb FLC,RanGTP-Imp inh,ALR H2O2 inh,HNF4A DNA FP
CCCOc1ccc(C2=CSC3=NCCN23)cc1Cl,-4.7,-17,2%,-16,3.1,70,-4.0
COC(=O)c1cccc(S(=O)(=O)N2CCN(c3nc4ccccc4s3)CC2)c1,3.9,2,1%,0,-1.0,-2,-3.5
COc1ccccc1CNC(=O)c1ccccc1C(=O)NC(CC(C)C)C(=O)NCc1ccccc1OC (stereo not given),0.2,1,x,13,4.7,x,1.9
CCOC(=O)c1c(C)[nH]c(C(=O)Cn2c(=O)c3c(ncn3CC)n(Cc3ccccc3)c2=O)c1C,-1.9,4,4%,2,2.1,-4,-0.4
CCn1cc(C(=O)NCCC(C)C)c(=O)c2cc(S(=O)(=O)N3CCCCC3)ccc21,4.7,0,x,-5,1.2,0,-2.8
Cc1ccc(C(=O)Nc2ccc(Oc3cccc(C(F)(F)F)c3)nc2)cc1,-3.0,6,x,-14,1.6,2,4.4
CCO/C(C)=C1\C(=O)Nc2ccccc21,3.0,-4,0%,0,2.9,-2,-1.4
COc1cc(/C=C/c2ccc3cccc(O)c3n2)ccc1O,-2.0,3,18%,-7,-2.5,50,-2.7
CC1Sc2ccc(Cl)cc2-c2nc(N)ncc21 (stereo not given),-16,8,x,39,0.3,-12,1.4
CCOC(=O)C1=C(COC(=O)/C=C/c2ccccc2)NC(=O)NC1C (stereo not given),0.5,-9,x,0,-0.1,-4,3.0
Cc1oc(-c2cccs2)nc1CS(=O)CC(=O)NCCc1ccccc1 (stereo not given),2.5,-2,5%,-4,4.5,98*,-3.3
CCCCNC(=S)NNC(=O)c1csc(C)c1C,1.1,-4,x,-6,-1.5,44,0.9
CCc1c(-c2ccccc2)nc2nc(C)c(C)nn12,3.0,-18,1%,1,50*,-2,0.1
COc1cc2c(cc1OC)C(c1ccc(-c3ccc(Cl)c(Cl)c3)o1)=NCC2,0.0,-3,24%,16,-3.9,0,4.5
CCOc1ccc(CCNC(=O)C2CCN(S(=O)(=O)N3CCCCC3)CC2)cc1OCC,x,-5,6%,-13,0.5,x,-4.0
Cc1ccc(NC(=O)C(OC(=O)c2ccccc2Cl)c2ccccc2)cc1Cl (stereo not given),x,-7,4%,-49,-4.4,x,-2.6
O=C(Nc1ccccc1C(=O)NCC1CCCO1)c1ccc(Cl)cc1Cl (stereo not given),-4.5,-4,-9%,u,-1.4,-2,1.6
CCN(CC)c1ccc(/C=N/NC(=O)c2ccccn2)cc1,1.0,18,23%,-4,3.4,22,4.3
COc1ccc(OC)c(NC(=O)c2ccc(S(=O)(=O)N3CCN(C)CC3)cc2)c1,5.8,5,-1%,1,-1.9,-34,3.8
CCOC(=O)/C=C1\Nc2ccccc2SC1=O,0.0,5,-5%,5,u,x,3.0
CCc1nn(CC(=O)NCCCN2CCOCC2)c(=O)c2cc3cc(F)ccc3n12,0.1,-14,x,-1,-0.9,-1,8.3
CC(NC(=O)CNC(=O)c1ccc2c(c1)OCO2)c1ccc(S(N)(=O)=O)cc1 (stereo not given),2.0,-6,x,x,x,44,4.9
O=C(c1ccco1)N1CCN(c2ncnc3c2nnn3Cc2ccccc2Cl)CC1,0.4,3,x,15,9.5,-14,1.9
CC(C)C(NC(=O)C1CCCCC1)C(=O)NC1CCCC(C)C1C (stereo not given),-2.0,6,-3%,16,-1.9,-5,2.0
O=C(CNCCc1ccc(F)cc1)Nc1cc(F)ccc1F,1.3,-4,1%,x,3.5,-21,-1.9
Cc1cccc(N(CC(=O)N2CCN(c3ccccc3F)CC2)S(C)(=O)=O)c1,-3.5,0,u,4,-4.6,1,-0.9
O=C1OCC(CC2=C(O)C(=O)OC2)=C1O,x,1,-2%,x,x,x,-1.3
CSc1nsc(SCC(=O)Nc2ccc(F)cc2)n1,4.9,-3,x,-5,4.6,3,3.8
Cc1ccccc1OCc1nnc(SCC(=O)Nc2ccc3nc(SCC(=O)Nc4ccccc4)sc3c2)n1C,x,0,-11%,-6,1.6,x,4.6
COc1ccc(COC(=O)CCN=C2NS(=O)(=O)c3ccccc32)cc1F,1.3,0,-5%,-4,2.4,0,0.7

# 3 of the entries above in order of the ALR H2O2 inh value, largest number first:
SMILES | ALR H2O2 inh
CC(NC(=O)CNC(=O)c1ccc2c(c1)OCO2)c1ccc(S(N)(=O)=O)cc1 (stereo not given) | 44
CCN(CC)c1ccc(/C=N/NC(=O)c2ccccn2)cc1 | 22
COc1ccc(OC)c(NC(=O)c2ccc(S(=O)(=O)N3CCN(C)CC3)cc2)c1 | -34

# More entries.
SMILES,LANA-H2B inh,B2AR ag,Vif TR-FRET,Calb FLC,RanGTP-Imp inh,ALR H2O2 inh,HNF4A DNA FP
COCCNC(=S)N1CCC(Cc2ccccc2)CC1,4.1,-6,-6%,-27,-0.2,6,3.8
Nc1nc(SCC(=O)c2c(N)n(Cc3ccccc3)c(=O)[nH]c2=O)n[nH]1,4.0,0,-3%,0,-0.3,4,-4.2
Cc1cc(/C=N/n2cnnc2)c(C)n1-c1ccc2c(c1)OCO2,7.4,4,3%,11,1.5,x,3.0
CC1=Nn2c(nnc2-c2n[nH]c3c2CCC3)SC1,4.7,4,-1%,1,-2.3,-9,-2.2
CCn1c(SCC(=O)OC)nnc1-c1ccc(C)cc1,1.1,10,u,5,-1.6,-6,-1.1
COc1ccc(C(=O)C2CCCN(Cc3sc(N4CCCC4)nc3Cl)C2)c(OC)c1 (stereo not given),-5.6,-3,-3%,-50,1.3,0,0.5
C#Cc1ccc(CN2CCN(Cc3ccsc3)C(CCO)C2)cc1 (stereo not given),-1.0,0,x,-49,9.6,-6,-3.0
COc1ccc(/C(C)=N\NC(=O)c2ccc(-c3ccccc3)cc2)c(F)c1,-1.6,9,x,4,-3.2,54,-1.8
CCNC(=O)NC(=O)C(C)OC(=O)[C@H](C)NS(=O)(=O)c1c(C)c(C)cc(C)c1C (stereo not given in full),1.0,-6,4%,3,6.8,-8,-2.4
CCCOc1ccc(C2=NNC(c3cccs3)=Nc3ccc(OC)cc32)cc1,-0.5,-14,x,13,-1.0,-11,6.4
CCOc1cccc(/C=N/Nc2nc(N3CCCC3)nc(N3CCCC3)n2)c1O,0.8,7,x,-9,u,-13,5.4
CC(C)(C)OC(=O)N1CCN(C(=O)c2[nH]cnc2C(=O)Nc2nccs2)CC1,-1.3,-2,x,x,x,3,0.2
O=C1C(=O)N(CCS(=O)(=O)c2ccccc2)c2ccccc21,1.0,-4,6%,8,-2.5,-46,3.4
COc1cccc(CC2(CO)CCN(Cc3ccc4cccc(F)c4n3)CC2)c1,-1.3,-9,x,-13,-0.8,-4,1.5
COc1cc(C(=O)OCC(=O)Nc2ccc(OC(F)F)cc2)cc(OC)c1OC,-11,2,7%,13,1.8,0,3.4
COC(=O)C1C2C=CC3(CN(Cc4cccs4)C(=O)C13)O2 (stereo not given),-0.1,7,u,-7,5.8,-11,-1.2
Cn1ccsc1=NC(=O)c1ccc(Cl)c([N+](=O)[O-])c1,0.9,-2,-14%,7,-3.7,x,1.2
CC1CCC(NC(=O)CCNC(=O)c2ccccc2)CC1 (stereo not given),-3.0,11,x,107*,-3.3,-2,-1.0
CC1(C)OC(=O)C(=Cc2ccc[nH]2)C(=O)O1,-5.4,4,13%,0,5.0,-2,-0.1
CCC(=O)N1CCc2cc(Br)cc(S(=O)(=O)CCC(=O)NCc3ccco3)c21,1.2,-6,25%,u,-2.5,0,6.6
CCCn1c(N)c(Sc2ccccc2)c(=O)n(CCC)c1=O,x,-2,2%,-60,-1.8,x,2.4
CN(C(=O)CSc1ccc(S(=O)(=O)N2CCCCC2)cn1)c1ccccc1,x,5,2%,x,x,x,-0.9
CCOC(=O)N/N=C\c1ccc(-c2cccc(C(F)(F)F)c2)o1,-0.3,-9,-1%,54,1.2,-13,-1.4
COc1ccc(CCCc2nnc(SCC(=O)Nc3cc(C)c(C)cc3Br)o2)cc1,-8.3,-3,-9%&-1%,11,-0.6,5,2.5
COc1ccc(/C=N/NS(=O)(=O)c2ccccc2)cc1OS(=O)(=O)c1ccc(C)cc1,0.5,12,14%,-2,-1.4,x,-0.2
CCCCNC(=O)N(O)C1N(CCCC)C(=O)N(CC(=O)OC)C1(C)C (stereo not given),0.4,1,-4%,-20,3.8,-9,-0.4
Cc1ccc(NC(=S)N(CCCN(C)C)Cc2cc3cc4c(cc3[nH]c2=O)OCO4)c(C)c1,-0.5,6,u,-5,-6.3,-13,0.4
CCOc1cc(S(=O)(=O)NCCCN2CCOCC2)ccc1F,-0.4,0,4%,-2,0.5,0,-2.6
CCN(CC)S(=O)(=O)c1ccc(C)c(NC(=O)CSc2nc3ccccc3[nH]2)c1,-3.1,-3,-6%,-2,-3.5,1,5.7
CC(=O)NC1(C(F)(F)F)C(=O)Nc2c1c(=O)n(C)c(=O)n2C (stereo not given),0.2,0,-8%,x,x,5,-0.7
COC(=O)c1ccc(C(=O)OC)c(NC(=O)COC(=O)CCOc2ccc(C)cc2)c1,5.7,-3,x,4,x,6,3.9
COc1ccc(N(C)C(=O)CCS(=O)(=O)c2cccc3nonc23)cc1,-0.9,-2,0%,18,-1.0,-6,0.2
CCN(CC)C(CNS(=O)(=O)c1ccc(Cl)cc1)c1ccccc1 (stereo not given),1.6,5,5%,14,x,11,1.2
O=C(NCCCN1CCOCC1)c1ccc2c(=O)n(Cc3ccc(Cl)cc3)c(=S)[nH]c2c1,5.7,12,3%,7,2.8,-3,-0.6
O=C(NCCCN1CCOCC1)c1cc2c(s1)CCCC2,0.4,-3,5%,-1,4.4,-81,-2.5
CC(C)(C)c1ccccc1OCCOCCNCc1ccccc1,0.1,-2,-3%,4,1.0,-20,-0.4
COC(=O)c1scc(C)c1N/N=C(\C)c1ccc(F)cc1,-2.8,-15,-7%,-14,-3.0,-9,3.7
CCOc1cccc(/C(O)=C2/C(=O)C(=O)N(CCN3CCOCC3)C2c2cccnc2)c1 (stereo not given),3.7,8,x,1,-1.4,2,0.4
Cc1ccc(N2CC(NS(=O)(=O)c3cccs3)CC2=O)cc1C (stereo not given),-8.7,-4,3%,-1,1.3,x,4.7
CCCOc1cccc(C(=O)NCCCNC(=O)c2ccccn2)c1,2.5,-7,x,x,x,-4,-0.6
COCc1cc(C)nc2sc(C(=O)N3CCCC3)c(N)c12,-0.1,-8,0%,-5,u,34,2.5
Cc1ccc(CNC(=O)C2CC(c3cccc(F)c3)=NO2)cc1 (stereo not given),1.7,9,x,0,0.3,-2,-4.0
COc1ccc(NC(=O)Cn2nnc(C(=O)NCc3ccccc3OC)c2N)cc1Cl,-3.0,-4,-6%&-2%,-5,0.1,-12,3.0
CCCCNC(=O)C1CC(c2cccc([N+](=O)[O-])c2)=NO1 (stereo not given),1.2,3,-3%,5,-2.4,-1,2.5
C=CCNC(=S)/C(=C(\[O-])c1ccc(Cl)cc1)[n+]1ccccc1,6.9,-14,x,2,2.5,98*,-3.6
O=C(CC(c1ccccc1)c1ccccc1)Nc1nn[nH]n1,1.1,9,x,-2,-1.0,-5,-3.3
CCOc1ccc(CSC(=N)N)cc1,-3.3,8,x,8,u,98*,-2.4
Cc1ccc(-c2sc(-c3cccnc3)nc2CC(=O)O)cc1,-5.5,-2,-10%,u,3.9,99*,-2.1
Cc1ccc(NC(=O)CC2SC3=NCCN3C2=O)cc1 (stereo not given),0.6,-3,u,-1,5.9,7,6.2
CCCn1c(N)c(C(=O)COC(=O)c2c(C)noc2C)c(=O)n(C)c1=O,-3.2,-1,4%,100*,4.9,7,-2.3
Cc1cc(NC(=O)COC(=O)[C@H](C)NC(=O)c2ccccc2)no1,0.0,8,-5%,x,6.7,-7,0.2
O=C(N/N=C/C(Br)=C/c1ccccc1)c1ccc([N+](=O)[O-])cc1,-0.8,3,-6%,-5,-3.5,-2,-6.0
